Assay outcomes as filed in PubChem.
WNV NS2B-NS3 inh – inhibitors of WNV NS2B-NS3 protease, primary screen, biochemical, fluorogenic substrate; Genome polyprotein (West Nile virus), P06935; hit rate 0.18% among 65,000; AID 577, 2007; fluorogenic substrate Ex360/Em465; active compounds read low; z-score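 (tested at a level between 10 and 100 µM)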;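 active means z-score at -3 or under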;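 further: score is relative to mean and spread of the compound wells of a plate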
Target sequence (P06935 1371-1501 limits assumed): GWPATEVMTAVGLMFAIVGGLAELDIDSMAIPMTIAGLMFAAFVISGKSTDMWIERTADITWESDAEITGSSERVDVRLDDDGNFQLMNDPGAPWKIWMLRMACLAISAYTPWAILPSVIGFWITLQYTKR
Target sequence (P06935 1502-1679 limits assumed): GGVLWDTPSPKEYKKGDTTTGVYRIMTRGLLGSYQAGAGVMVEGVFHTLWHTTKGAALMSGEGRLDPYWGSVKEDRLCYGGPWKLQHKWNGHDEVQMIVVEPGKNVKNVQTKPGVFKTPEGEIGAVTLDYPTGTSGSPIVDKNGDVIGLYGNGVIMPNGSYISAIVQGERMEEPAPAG
MT1-MMP reporter – inhibitors of MT1-MMP promoter transcription, cell-based, luciferase reporter, luminescence (AID 618); calls from a first round at 10 µM; hits with a dose series show EC50 in µM; hit rate 0.62% among 87,000; MT1-MMP promoter luciferase reporter cells, luminescence;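 active means over half of the reporter light lost at 10 µM or EC50 under 50 µM; inactive means the rest and hits that failed the dose series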;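 further: actives suppress MT1-MMP promoter-driven transcription so potencies describe inhibitors; HT1080 fibrosarcoma cells; overnight exposure; toxic or luciferase-blocking compounds were not removed from the actives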
Hsc70 ATP site – Hsc70 inhibitors, probe displacement, primary screen, biochemical, fluorescence polarization (AID 568). 83,000 tested, under 10 active. Hsc70 fluorescence polarization, probe displacement; higher % means a stronger effect; strong numbers were not always called active. displacement, % at 20 µM, or IC50 in µM where a hit was titrated. Heat shock cognate 71 kDa protein (Homo sapiens);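 active means displacement above 50% without optical interference and an IC50 on retest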;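 further: ATPase domain with a fluorescein-tagged ATP probe; 0% = vehicle and 100% = excess ADP; read after one hour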
An asterisk follows results filed as active; i = inactive; . = not tested or not shown.

Every second line gives: WNV NS2B-NS3 inh	MT1-MMP reporter	Hsc70 ATP site
COc1ccc(-n2c(SCC(=O)N3CCCC3)nc3c([nH]c4ccccc43)c2=O)cc1
    -0.6	i	3.5%
COCCNC(=O)c1ccc2c(c1)nc(C)n2-c1cc(OC)c(OC)c(OC)c1
    1.6	i	1.8%
COc1cccc(NC(=O)CN2C(=O)C3(OCCCO3)c3ccccc32)c1
    -0.98	i	-3.4%
O=C(NC1CCCc2ccccc21)C1CCN(c2c(N3CCCC3)c(=O)c2=O)CC1 (centres undefined)
    1.1	i	-0.3%
C=CCn1c(=O)/c(=C\c2ccsc2)s/c1=C(/C#N)C(=O)NCCN1CCOCC1
    -0.63	i	-1.0%
COc1cc(NC(=O)C(F)(F)F)cc(OC)c1
    -0.62	i	-9.5%
Cc1cc(=O)n(CCC(=O)O)c2ccccc12
    0.59	i	-2.6%
O=C(Nc1ccc(-c2nnc(-c3ccccc3)o2)cc1)C1CCCO1 (centres undefined)
    1.4	i	-0.3%
CCS(=O)(=O)NCc1csc(C)n1
    -0.3	i	2.2%
COC(=O)CSc1nnnn1-c1cccc2ccccc12
    -0.35	i	-4.1%
N#Cc1c(NC(=O)CCN2C(=O)c3ccccc3C2=O)oc(-c2ccccc2)c1-c1ccccc1
    0.13	i	-3.6%
C[N+]1(CCN2C(=O)C3CC=C(Cl)CC3C2=O)CCOCC1 (centres undefined)
    1.7	i	-0.3%
CC(=O)NCCC(Cc1ccccc1)c1ccco1 (centres undefined)
    .	i	-7.9%
CCOc1ccc(C(=O)Nc2ccncc2)cc1
    -0.74	i	6.2%
Cc1ccc(-n2nnnc2SCc2nnc(-c3ccccc3Br)o2)c(C)c1
    -0.54	i	-21%
CC(=O)c1cc2c(cc1NC(=O)CN1CCN(c3ccc(F)cc3)CC1)OCO2
    -0.46	i	3.0%
CCn1cc(Br)c(C(=O)N(C)Cc2ccccc2)n1
    1.5	i	0.6%
CCOC(=O)c1c(C(C#N)C#N)cc(C)nc1C
    0.59	i	-1.4%
COc1cc(C(=O)NCc2ccc(-c3nc4ccccc4o3)cc2)cc(OC)c1OC
    -0.43	i	-30%
Cc1[nH]c2ccc(Br)cc2c(=O)c1CN1CCCCC1
    0.86	i	3.8%
Cn1cccc1C1(C(F)(F)F)NCCNC1=O (centres undefined)
    -0.72	i	1.8%
O=C(O)c1ccccc1NCc1ccncc1
    -1.2	i	-4.7%
COc1ccccc1C1/C(=C(/O)c2cnn(-c3ccccc3)c2C)C(=O)C(=O)N1CCN(C)C (centres undefined)
    -0.19	i	-3.9%
CC(=O)c1cccc(NC(=O)N2CCCC2C(=O)NCc2ccc(F)cc2)c1 (centres undefined)
    -0.44	i	0.2%
CC(C)OCCCNC(=O)c1cccs1
    0.06	i	-0.1%
COc1cc(C(=O)Nc2ccc(S(=O)(=O)N3CCc4ccccc43)cc2)cc(OC)c1OC
    .	i	-3.5%
CCOc1ccc(C(=O)Nc2cc(C)on2)cc1OCC
    0.0054	i	-2.7%
COC(=O)[C@H](CCSC)NC(=O)NCc1ccccn1
    -0.44	i	2.9%
O=C(OCN1C(=O)c2ccccc2C1=O)c1cccs1
    -0.69	i	-0.6%
N#Cc1c(C(F)(F)F)cc(C2CC2)[nH]c1=O
    2	i	-0.4%
CCOc1ccccc1-n1c(SCC(N)=O)nnc1-c1cccnc1
    0.17	i	-0.5%
CCOC(=O)N1CCN(C(c2ccc(C(C)C)cc2)c2sc3nc(C)nn3c2O)CC1 (centres undefined)
    -0.42	i	1.6%
O=C(O)c1ccc(NC(=O)C2CCCCC2)cc1
    -1.7	i	1.0%
O=C(C1CC(c2ccc(F)cc2)=NO1)N1CCc2ccccc2C1 (centres undefined)
    -0.9	i	0.0%
Cc1nc2ccc(S(=O)(=O)NCC(=O)NCCN3CCCCC3C)cc2s1 (centres undefined)
    0.25	i	6.8%
CC(C)n1ncc(C(N)=O)c1N
    -0.42	i	5.5%
CC(Sc1ncnc2ccccc12)C(=O)Nc1ccc2c(c1)OCO2 (centres undefined)
    .	i	-3.1%
COCC(=O)NC1CCN(C(=O)Nc2ccc(Br)cc2)CC1
    -0.93	i	4.1%
CCc1nnc(NC(=O)CSc2nnc(-c3ccco3)n2C)s1
    0.12	i	1.7%
CC1CCN(c2nc(-c3ccco3)c3c(c2C#N)CC(C)(C)OC3)CC1
    -1.1	i	7.8%

Compounds above with a CF3 group, in the order listed:
Every second line gives: WNV NS2B-NS3 inh	MT1-MMP reporter	Hsc70 ATP site
COc1cc(NC(=O)C(F)(F)F)cc(OC)c1
    -0.62	i	-9.5%
Cn1cccc1C1(C(F)(F)F)NCCNC1=O (centres undefined)
    -0.72	i	1.8%
N#Cc1c(C(F)(F)F)cc(C2CC2)[nH]c1=O
    2	i	-0.4%

The list goes on:
Every second line gives: WNV NS2B-NS3 inh	MT1-MMP reporter	Hsc70 ATP site
N#Cc1cccc(NC(=O)CCn2ccnc2)c1
    .	i	2.4%
CCCOc1cccc(C(=O)O)c1
    -0.69	i	-5.6%
COc1ccc(C2C3=C(CC(C)(C)CC3=O)Nc3c2c(=O)[nH]c2nc(C)nn32)cc1 (centres undefined)
    -0.25	i	3.9%
Cn1c(=N)c(S(=O)(=O)c2ccccc2)cc2c(=O)n3ccccc3nc21
    -0.4	i	36%
COC(=O)c1onc(C(=O)c2ccccc2)c1C(=O)OC
    -0.7	i	-2.2%
CC12CCC(C(=O)N3CCN(C(=O)C45CCC(C)(C(=O)O4)C5(C)C)CC3)(OC1=O)C2(C)C
    -0.05	i	2.2%
CCC(C)(C)n1nnnc1C(c1ccc2ncccc2c1)N1CCN(Cc2ccc3c(c2)OCO3)CC1 (centres undefined)
    -1.3	i	-3.9%
CCOc1ccc(NC(=O)CSC2=C(C#N)C(c3ccc4c(c3)OCO4)CC(=O)N2)cc1 (centres undefined)
    -1.2	i	-1.1%
CC(C)(C)NS(=O)(=O)c1ccc(CCC(=O)NCc2ccc3c(c2)OCO3)cc1
    .	i	3.5%
CCOC(=O)CN1NC2(CCCC(C)C2)NC1=S (centres undefined)
    .	i	2.4%
COc1ccc(-c2nnc(SCC(=O)NC(C)C)n2CC2CCCO2)cc1OC (centres undefined)
    -0.41	i	6.3%
O=S(=O)(N1CCOCC1)n1c(Cc2ccccc2)nc2ccccc21
    1.2	i	3.8%
CCCCSc1nc(C)c(CC(=O)O)c(=O)[nH]1
    1.2	i	2.7%
COC(=O)c1cnn2c(C(F)(F)F)cc(-c3ccco3)nc12
    1.1	i	0.6%
Cc1cc(NC(=O)CCC(=O)N(Cc2cccs2)C(C(=O)NC2CCCC2)c2ccccc2)no1 (centres undefined)
    .	i	8.9%
Cc1sc2c(=O)n3c(nc2c1C(=O)NC1CCCCC1)CCCCC3
    .	i	4.4%
O=C(CN1C(=O)COc2ccccc21)NCCC1=CCCCC1
    -1.7	i	4.9%
c1ccc(-c2nc(N3CCN(c4ccccc4)CC3)nc(-n3ccnc3)n2)cc1
    0.61	i	-7.3%
COc1cc(-c2nnc(SCC(=O)N3c4ccccc4Sc4ccccc43)o2)cc(OC)c1OC
    .	i	-5.6%
CC1(C)N([O-])C(c2cccs2)=C[N+]1=O
    -1	i	8.0%
COc1ccc(-n2nnnc2SCC(=O)NC(=O)Nc2ccc3c(c2)OCCO3)cc1
    .	i	2.5%
COCCN1C=C(C(=O)OC)C(c2ccccc2C(F)(F)F)C(C(=O)OC)=C1
    .	i	-1.1%
Cc1cccc(-c2noc(CN(C(C)C)S(=O)(=O)c3ccc(F)cc3)n2)c1
    -0.01	i	1.5%
COC(=O)C1(C(O)C(=O)c2ccc(C)cc2C)CCCCC1 (centres undefined)
    -0.71	i	4.9%
Cc1c(C(=O)Nc2ccccc2Cl)oc2ccc(S(=O)(=O)N3CCC4(CC3)OCCO4)cc12
    -1.6	i	1.0%
Clc1cccc(-c2nnc(SCc3nc4ccccc4[nH]3)n2Cc2ccco2)c1
    0.29	i	-4.9%
CCNc1nc(NCC)n2c(SCc3nc4ccccc4c(=O)[nH]3)nnc2n1
    1.4	i	1.7%
CCOc1ccc2[nH]cc(S(=O)(=O)c3ccc(F)cc3)c(=O)c2c1
    -0.83	i	-2.3%
OCCSc1ncnc2c1oc1ccccc12
    -1.2	i	-1.1%
Nc1cc(N)cc(-c2nc3ccccc3o2)c1
    0.03	i	-2.2%

Pulled by structure from the list above (two):
Every second line gives: WNV NS2B-NS3 inh	MT1-MMP reporter	Hsc70 ATP site
Cc1cccc(-c2noc(CN(C(C)C)S(=O)(=O)c3ccc(F)cc3)n2)c1
    -0.01	i	1.5%
CCOc1ccc2[nH]cc(S(=O)(=O)c3ccc(F)cc3)c(=O)c2c1
    -0.83	i	-2.3%

More records follow.
Every second line gives: WNV NS2B-NS3 inh	MT1-MMP reporter	Hsc70 ATP site
O=C(c1cc2sccc2n1Cc1ccc(F)cc1)N1CCCc2ccccc21
    .	i	1.7%
O=C(c1ccccc1NS(=O)(=O)c1ccc(F)cc1)N1CCCC1
    .	i	-3.8%
CCOC(=O)c1cc(-c2ccc(C)cc2)n(CCC(=O)NCCN(C)C)c1C
    0.09	i	2.9%
CC(=O)c1cc(-c2ccccc2)n(CC(=O)N2CCC(C)CC2)c1C
    .	i	3.2%
O=C(Nc1ccc(Oc2ccc(S(=O)(=O)N3CCOCC3)cn2)cc1)c1ccco1
    0.32	i	-1.0%
COc1cccc(C2CC(=O)N3CN(c4ccccc4F)CSC3=C2C#N)c1 (centres undefined)
    0.67	i	-5.3%
Cc1cccc(NC(=O)CC2CCC2)c1
    0.49	i	-1.1%
Nc1nc(CN2CCC(Cc3ccccc3)CC2)nc(Nc2ccccc2)n1
    .	i	2.6%
CC(C)C(c1nnnn1C1CCCC1)N(C)C1CCCCC1 (centres undefined)
    0.04	i	-0.7%
Cc1nnc(SCc2cn3ccsc3n2)n(N)c1=O
    0.59	i	3.2%
c1ccc(C(c2nnnn2Cc2ccco2)N2CCN(c3nc4ccccc4s3)CC2)cc1 (centres undefined)
    .	i	0.5%
O=C(NCc1ccco1)c1cc(-c2ccco2)on1
    -0.8	i	1.5%
Cc1ccccc1OCCCCCNCCO
    -0.87	i	-1.6%
O=C(CN(Cc1ccccc1Cl)C(=O)Cn1nnc(-c2cccs2)n1)NCC1CCCO1 (centres undefined)
    1.5	i	-4.1%
Cc1cc(=O)oc2ccc(OCC(=O)N3CCC(C)CC3)cc12
    -0.52	i	1.0%
COc1cc(C2NC(=O)NC(O)(C(F)(F)F)C2C(=O)c2ccc(Cl)cc2)ccc1O (centres undefined)
    1.7	i	0.5%
CCc1cc2c(=O)n(-c3ccc(C)cc3)cnc2s1
    .	i	-0.4%
Cc1cccc(Nc2nc(N)nc(CN3CCC(C)CC3)n2)c1C
    0.1	i	2.6%
CC(Sc1nc(-c2ccccc2)cc(C(F)(F)F)n1)C(=O)N1CCCCC1 (centres undefined)
    .	i	-1.1%
COc1ccc(-c2cc(-c3ccc(F)cc3)nc(N3CCN(C)CC3)n2)cc1
    0.08	i	-1.5%

Some of the entries so far, with each value named:
CC(C)C(c1nnnn1C1CCCC1)N(C)C1CCCCC1 (centres undefined)
  WNV NS2B-NS3 inh = 0.04 | MT1-MMP reporter = i | Hsc70 ATP site = -0.7%

Cc1nnc(SCc2cn3ccsc3n2)n(N)c1=O
  WNV NS2B-NS3 inh = 0.59 | MT1-MMP reporter = i | Hsc70 ATP site = 3.2%

The results go on:
Every second line gives: WNV NS2B-NS3 inh	MT1-MMP reporter	Hsc70 ATP site
COCCNC(=O)CCc1ccc(S(=O)(=O)Nc2ccc(C)cc2)cc1
    .	i	-1.4%
COc1ccc(NC(=O)N2CCCc3ccccc32)cc1
    1.2	i	5.2%
Cn1c2c(c(=O)n(C)c1=O)C(NS(=O)(=O)c1ccccc1)(C(F)(F)F)C(=O)N2 (centres undefined)
    0.21	i	2.6%
Cc1ccc(NS(=O)(=O)c2ccc(NC(=O)C3CCCO3)cc2)cc1 (centres undefined)
    -0.6	i	4.1%
Cc1nc(SCC(=O)NC(C)c2ccccc2)c2oc3ccccc3c2n1 (centres undefined)
    .	i	2.2%
CCOC(=O)c1cnn(-c2ccccc2)c1N
    .	i	-0.4%
CCC(=O)c1ccc(OCC(O)CN2C(=O)NC(C)(C)C2=O)cc1 (centres undefined)
    0.36	i	-6.1%
Cc1ccc(N2CC(C(=O)NCc3ccc4c(c3)OCO4)CC2=O)cc1C (centres undefined)
    0.1	i	-1.0%
CCN(CC)c1ccc(C(=S)N2CCN(c3ccccc3)CC2)cc1
    0.6	i	-1.4%
COc1cccc2cc(C(=O)NCc3ccccn3)c(=O)oc12
    .	i	-0.6%
Cc1ccc(NCc2nnc(SCC(=O)N(Cc3ccccc3)C(C)(C)C)o2)c(C)c1
    0.96	i	0.9%
CC(=O)Nc1nnc(SCC(=O)NCC2CCCO2)s1 (centres undefined)
    -0.7	i	-5.6%
CCOC(=O)Cc1csc(NC(=O)CSc2nnc(C(C)C)n2C)n1
    -0.64	i	1.2%

Not a hit list; any-hit rate near 0.87%.
